Bioassay records (PubChem BioAssay)
Resorufin autofl: compounds fluorescent in resorufin spectral region; Compound fluorescence, resorufin region 547/598 nm, buffer; hits give high values; max dye-equivalent concentration, M; hit rate 0.04% among 59,000; AID 588; active = above 10 nM dye equivalent; inconclusive = 1 to 10 nM; inactive = 1 nM or less; a few of its hits are not listed in these tables; further: highest value over a series up to 38 µM
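Tris 100 mM pH 8.0; compound added, 15 min RT; CCD imager read, ex 547 nm/em 598 nm; signal normalized to resorufin standard curve (six concentrations per plate) as dye-equivalent concentration.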
A647 fluor: compound fluoresces in the A647 spectral region | 59,000 tested, under 10 active | Compound fluorescence, A647 channel (570/671 nm), Tris buffer | max dye-equivalent concentration, M | AID 592; active means above 1 µM dye equivalent; inconclusive means 0.1 to 1 µM; inactive means 0.1 µM or less;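 further: values scaled relative to a standard on each plate; highest value over a series up to 38 µM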
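Buffer was dispensed, compounds and Alexa 647 standards were pin-transferred, and plates sat 15 min at room temperature. Intensity at 570/671 nm was then converted to dye-equivalent concentration using the plate's A647 standard curve.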
A488 fluor: compound autofluorescence in A488 spectral region; hit rate 0.1% among 59,000; max dye equivalency, M; compound autofluorescence, A488 spectral region, dye equivalency; hits give high values; active = above 10 nM dye equivalent; inconclusive = 1 to 10 nM; inactive = 1 nM or less; about half of its hits are not listed in these tables;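 further: highest value over a series up to 38 µM; compound alone in buffer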
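Spectroscopic profiling in the A488 region: compounds in pH 8.0 Tris (100 mM), 15 min RT, CCD imaging with 480 nm excitation and 540 nm emission; responses normalized against A488 dye standards.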
TSHR ag: agonists of human thyroid stimulating hormone receptor. P16473. HEK293-CNG-TSHR cells (CNG channel as cAMP sensor), membrane potential dye, cAMP. Potency, µM (top dose mostly 57.1 µM), for the others: top-dose activation, usual class: activators. AID 926. hit rate 0.48% among 73,000; active = well fitted activation curve of enough size with the parental cells flat; inconclusive = any curve in the parental cells; inactive = parental cells flat and receptor cells flat or falling; further: potency means the concentration at half of the fitted maximal effect; % of control where 0% means no effect; weak receptor curves with flat parental cells got no call and are not listed
Target sequence (P16473 whole entry, looked up): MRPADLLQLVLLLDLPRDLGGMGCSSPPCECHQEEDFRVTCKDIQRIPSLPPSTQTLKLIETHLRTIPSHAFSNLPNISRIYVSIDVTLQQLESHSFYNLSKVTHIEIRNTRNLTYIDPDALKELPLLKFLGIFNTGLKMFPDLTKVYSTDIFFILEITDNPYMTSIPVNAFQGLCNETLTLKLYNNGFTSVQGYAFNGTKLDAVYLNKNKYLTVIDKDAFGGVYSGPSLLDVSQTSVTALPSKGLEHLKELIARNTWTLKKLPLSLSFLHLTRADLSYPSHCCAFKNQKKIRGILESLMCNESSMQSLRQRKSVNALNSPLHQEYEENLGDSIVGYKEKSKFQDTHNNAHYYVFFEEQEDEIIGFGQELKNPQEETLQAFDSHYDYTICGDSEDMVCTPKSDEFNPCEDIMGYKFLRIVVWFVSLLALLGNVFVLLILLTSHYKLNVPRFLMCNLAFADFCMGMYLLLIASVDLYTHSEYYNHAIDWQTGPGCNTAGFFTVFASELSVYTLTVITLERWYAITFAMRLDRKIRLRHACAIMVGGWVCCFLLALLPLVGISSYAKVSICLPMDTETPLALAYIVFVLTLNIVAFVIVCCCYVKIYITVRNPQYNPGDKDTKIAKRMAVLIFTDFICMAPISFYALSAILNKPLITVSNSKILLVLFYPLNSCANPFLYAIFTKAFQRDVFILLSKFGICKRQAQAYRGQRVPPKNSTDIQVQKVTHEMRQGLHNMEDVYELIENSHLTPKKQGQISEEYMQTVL
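HEK 293 cells stably expressing TSHR and a cAMP-gated CNG channel; parental CNG-only cells as counterscreen. Cells preloaded 60 min with membrane potential dye plus 100 uM RO 20-1724, then compound 30 min; fluorescence read at 590 nm.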
AID923: qHTS Assay for Allosteric/Competitive Inhibitors of Caspase-1: Spectroscopic Profiling in AFC Spectral Region; compound fluorescence, AFC spectral region (405/520 nm); almost no hit is shown here; Potency, µM (doses to about 57.5 µM), for the others: at the highest dose fluorescence increase, usual class: activators; hit rate 1.1% among 75,000; AID 923, 2007; active means well fitted activation curve with a large enough effect; inconclusive means small, poorly fitted or top-dose-only effect;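 further: potency means the concentration at half of the fitted maximal effect; 0% is about no effect; scaled to a free AFC standard on each plate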
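Baseline compound fluorescence (AFC region, 405 nm ex/520 nm em) taken from the intercept of kinetic reads with 50 nM caspase-1 and 5 uM Ac-WEHD-AFC; normalized to an on-plate AFC standard curve; compounds titrated up to 57 uM.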
* = called active by the depositor; i = inactive; ? = inconclusive; nt = not tested or not shown; [ ] = remark or other dose. A portion of the library; the hit share may differ from the screen's.

canonical_smiles	Resorufin autofl	A647 fluor	A488 fluor	TSHR ag	AID923
O=C(CN(Cc1ccc2c(c1)OCO2)C(=O)CNS(=O)(=O)c1ccccc1)NCc1ccco1	i	4.2e-08	i	7%	-0.1%
CCCOc1ccc(C(=O)NCCCn2ccnc2)cc1	i	5.7e-09	i	10%	-2.0%
Cc1cccc(OCC(=O)Nc2ccc3c(c2)OCCO3)c1	i	3.5e-08	i	17%	-0.4%
c1ccc(CCc2ccccc2-c2nc(-c3ccccn3)no2)cc1	i	5.9e-09	i	?	-1.0%
CCCCCOc1ccc(CN2CCOCC2)cc1Cl	i	1.2e-08	i	?	-1.4%
CCOC(=O)c1nnn(-c2nonc2N)c1-c1cccs1	i	2.4e-08	i	0%[11.4 µM]	-1.8%
CC(C)Cc1nnc(NC(=O)CCN2C(=O)c3ccccc3C2=O)s1	nt	nt	nt	?	-2.3%
CCCn1nnnc1NCc1cccn1C	i	1.1e-08	i	13%	-2.6%
CCNS(=O)(=O)c1ccc(NC(=O)c2cc(C(F)(F)F)nn2C)cc1	i	3.9e-08	i	-5%	0.6%
O=C1CC(c2ccccc2)C(=O)N1c1cccc(O)c1 (stereo not given)	i	1.4e-08	i	-2%	-2.7%
CCC(C)(C(=O)NC1CCCCC1)N(C(=O)c1cnccn1)c1c(C)n(C)n(-c2ccccc2)c1=O (stereo not given)	i	1.9e-08	i	3%	-0.1%
CC(C)Cn1c(N)c(C(=O)COC(=O)c2ccc3ccccc3n2)c(=O)n(C)c1=O	i	6.8e-09	i	11%	0.2%
COc1ccc(NC(=O)c2oc3ccccc3c2NC(=O)COc2ccccc2OC)c(OC)c1	i	3.3e-08	i	8%[11.4 µM]	-1.3%
CCOC(=O)c1ccc(-n2c(-c3ccco3)nc3ccccc3c2=O)cc1	i	1e-09	i	?	0.8%
CCOC(=O)c1sc(C)c2c1NC1(CCCCC1)NC2=O	i	3.4e-08	i	-2%	0.4%
COc1cccc(Cn2c(=O)c(-c3ccccc3)nc3cncnc32)c1	i	1.1e-08	i	-5%	8.2%
CC(=O)Nc1c(O)nc(SCC(=O)N2CCN(c3ccc(F)cc3)CC2)[nH]c1=O	i	7.6e-09	i	-8%	-0.2%
CC(C)OC(=O)CSc1nc2cccnc2n1C1CCCCC1	i	4e-08	i	?	1.4%
C=CCSC1=NC(N)=C(C#N)C2(CCCCC2)C1C(N)=O (stereo not given)	nt	nt	nt	14%	2.0%
CCN1CCN(c2nc3c(C)cccn3c(=O)c2/C=C(\C#N)S(=O)(=O)c2ccc(C)cc2)CC1	i	1.4e-09	i	nt	nt
O=S(=O)(NC1CCCC1)c1cccc(S(=O)(=O)N2CCC(n3nnc4ccccc43)CC2)c1	i	1.1e-09	i	7%	2.0%
CC1CC(C)(C)NC(=O)O1 (stereo not given)	i	1.3e-08	i	8%	0.7%
Cn1c(-c2ccccc2)cc2c3no[n+]([O-])c3ccc21	i	3.7e-08	i	0%	-0.4%
CCOc1ccc(-c2nc(N)ncc2-c2ccccc2)c(O)c1	i	1e-09	i	16%	0.5%
CS(=O)(=O)c1ccc2nc(NC(=O)c3cccs3)sc2c1	i	1e-09	i	-7%	-0.2%
CCN(CC)C(=O)c1sc(NC(=O)c2ccco2)c(C#N)c1C	i	8.1e-09	i	-5%	1.4%
COC(=O)c1ccc(C(NC(=O)OCc2ccccc2)/C(I)=C/[C@@H](C)C(=O)NCC2CC2)cc1 (stereo not given in full)	nt	nt	nt	?	-0.5%
CCCCCCn1c(SCCC)nc2c1c(=O)[nH]c(=O)n2C	i	1e-09	i	13%	-0.5%
C=CCOc1c(Cl)cc(C2NC(=O)NC(C)=C2C(=O)OC)cc1Cl (stereo not given)	i	2.3e-09	i	nt	-0.6%
Cc1ccc(Cn2nc(C)c(NC(=O)c3cc(-c4ccc5c(c4)OCO5)on3)c2C)cc1	i	1.3e-09	i	8%	-1.4%
COc1cccc(NC(=O)c2ccccc2-c2nc(-c3ccccc3)no2)c1	i	1.7e-09	i	?	-0.3%
Cc1ccc(S(=O)(=O)C2(C(=O)N3CCN(C4CCCCC4)CC3)CC2)cc1	i	1.2e-09	i	0%	0.4%
CCOC(=O)c1ccccc1NC(=O)CSc1nnnn1C1CCCCC1	i	1e-08	i	?	-0.9%
C[N+]1(CCC(=O)c2ccco2)CC2CCC(CC2)C1 (stereo not given)	i	5.6e-08	i	6%[11.4 µM]	-1.5%[11.5 µM]
COc1ccc(C2SCCN2S(=O)(=O)c2ccccc2)cc1OC (stereo not given)	i	1.6e-08	i	32µM*	-0.6%
CCn1c(C)c(C(C)=O)c(N2CCN(C(=O)c3ccco3)CC2)nc1=S	i	1e-09	i	1%	0.7%
CCC(=O)N1C(C(=O)O)CSC1c1ccc(OC)cc1 (stereo not given)	nt	nt	nt	2%	-1.3%
NC(=O)C1CCCNC1 (stereo not given)	i	2.2e-09	i	-3%	-1.6%
C=C(Br)CN(C)CC(=C)Br	i	3e-08	i	6%[11.4 µM]	2.0%[11.5 µM]
COc1ccc(S(=O)(=O)Nc2ccccc2SC)cc1C	i	1.8e-09	i	26%	-0.2%
CCN1CCN(CCNC(=O)C2CCCN(Cc3nc(-c4cccc(Cl)c4)oc3C)C2)CC1 (stereo not given)	nt	nt	nt	23%	-0.4%
CN(C)Cc1ccccc1-c1cc(NCc2cccs2)ncn1	i	1e-09	i	?	-0.1%
COC(=O)C1=C(C)NC(C)=C(C(=O)OC)C1c1ccccc1OCc1c(C)no[n+]1[O-]	i	2.3e-08	i	3%	5.1%
CCOC(=O)C(NC(C)=O)(N1CCc2ccccc2C1)C(F)(F)F (stereo not given)	i	1e-09	i	18%	-0.3%
COc1ccc(S(=O)(=O)Nc2ccc(C(F)(F)F)cc2)cc1OC	i	5.1e-08	i	11%	-3.7%
O=C(c1ccco1)N1CCC2(CCN(Cc3ccncc3)CC2)CC1	i	1e-09	i	3%	2.2%
CCOc1ccc(N(CC(=O)OC)S(=O)(=O)c2ccc(OC)c(OC)c2)cc1	nt	nt	nt	21%	-1.4%
N#Cc1c(SCC(N)=O)nc(-c2ccccc2)c2c1CCCC2	i	2.3e-09	i	?	-0.3%
COC(=O)[C@@]1(Cc2ccc(F)cc2)[C@H]2c3cc(C(=O)N4CCCC4)n(Cc4ccc(C(F)(F)F)nc4)c3C[C@H]2CN1C(=O)c1ccccc1	nt	nt	nt	?	0.2%
O=C(c1cc(-c2ccccc2)nc2ccccc12)N1CCN(c2ccccn2)CC1	i	2.4e-09	i	nt	-0.5%

4 of these compounds in a different format.
> COc1ccc(C2SCCN2S(=O)(=O)c2ccccc2)cc1OC (stereo not given)
- Resorufin autofl = i
- A647 fluor = 1.6e-08
- A488 fluor = i
- TSHR ag = 32µM*
- AID923 = -0.6%
> CCn1c(C)c(C(C)=O)c(N2CCN(C(=O)c3ccco3)CC2)nc1=S
- Resorufin autofl = i
- A647 fluor = 1e-09
- A488 fluor = i
- TSHR ag = 1%
- AID923 = 0.7%
> CCC(=O)N1C(C(=O)O)CSC1c1ccc(OC)cc1 (stereo not given)
- Resorufin autofl = nt
- A647 fluor = nt
- A488 fluor = nt
- TSHR ag = 2%
- AID923 = -1.3%
> NC(=O)C1CCCNC1 (stereo not given)
- Resorufin autofl = i
- A647 fluor = 2.2e-09
- A488 fluor = i
- TSHR ag = -3%
- AID923 = -1.6%

The listing continues:
canonical_smiles	Resorufin autofl	A647 fluor	A488 fluor	TSHR ag	AID923
O=C(Nc1ccc2c(c1)OCO2)c1cccc(F)c1	i	4.8e-09	i	-5%	0.0%
Cc1cc(C)c(C#N)c(Nc2ccc3c(c2)OCCO3)n1	nt	nt	nt	?	3.5%
O=C(c1csnn1)N1CCC2(CC1)CCN(c1ccncc1)CC2	i	1e-09	i	10%	2.4%
COc1cc(Br)cc2cc(C(=O)N3CCN(C(=O)c4ccco4)CC3)c(=O)oc12	i	4.9e-08	i	nt	3.8%
Cc1cc2c(=O)n(Cc3ccco3)c(SCC(=O)c3ccc(Cl)s3)nc2s1	i	2.3e-08	i	?	2.1%
COc1ccc(-n2c(Cn3c(=O)sc4ccccc43)nnc2SCC(=O)N2CCCC2)cc1	nt	nt	nt	7%	4.0%
O=C(C1CC1)N1CCc2cc(Br)cc(S(=O)(=O)N3CCCCCC3)c21	i	1e-09	i	?	0.0%
COC(=O)[C@@]1(Cc2ccc(OC)cc2)[C@H]2c3cc(C(=O)N(C)C)n(CCc4c[nH]c5ccc(O)cc45)c3C[C@H]2CN1C(=O)c1ccccc1	nt	nt	nt	4%	-2.5%
Cn1c(=O)c2c3c(sc2n2c(SCc4ccc5c(c4)OCO5)nnc12)COC(C)(C)C3	nt	nt	nt	3%	1.4%
CC1CCc2nn(CC(=O)NCc3ccc4c(c3)OCO4)cc2C1 (stereo not given)	nt	nt	nt	13%	0.3%
COc1cc2c(C)nc3onc(-c4ccccc4)c3c2cc1OC	i	1e-09	i	26%	-1.3%
COc1ccc(-n2c(C)cc(C(=O)CSc3nnc(-c4ccoc4C)n3C)c2C)cc1	i	1.8e-08	i	?	-0.3%
CCOC(=O)N1CCC(NC(=O)C2CCCN(c3nc4ccccc4o3)C2)CC1 (stereo not given)	i	2.5e-09	i	-1%	-2.5%
COc1cc(CC(=O)O)ccc1O	i	2.8e-09	i	nt	0.9%
C=C(C)CC1N(c2cccc(OC)c2)C(=O)C2C(C(=O)O)C3C=CC21O3 (stereo not given)	nt	nt	nt	-1%	2.7%
CCOC(=O)N1CCC(Nc2nc3ccccc3n3cnnc23)CC1	nt	nt	nt	4%	0.6%
CCN(CC)C(=O)C1CCCc2c1[nH]c1ccc(Cl)cc21 (stereo not given)	nt	nt	nt	2%	5.5%
Cc1cc(C)n(-c2cc(-n3nc(C)cc3C)ncn2)n1	nt	nt	nt	4%[11.4 µM]	-2.5%
O=C(O)C1Nc2c(C(=O)N3CCOCC3)cccc2C2C=CCC12 (stereo not given)	nt	nt	nt	-9%	11%
CC(C)(C)c1ccc(C(=O)Nc2cnccn2)cc1	i	6.7e-09	i	6%	0.2%
CCOC(=O)Nc1ccc(C(=O)Oc2ccccc2)c(O)c1	i	1.8e-08	i	7%	1.6%
C1=Nc2c(Nc3ccccc3)ncnc2Oc2ccccc21	i	4.9e-09	i	16%	-3.3%
CC1=C(C)CC(c2ccccc2)C(C(=O)c2ccccc2O)C1 (stereo not given)	nt	nt	nt	6%[11.4 µM]	0.4%[11.5 µM]
Nc1nc2n(n1)C1(CCCCC1)C1=C(CCCC1)N2	nt	nt	nt	6%[11.4 µM]	0.9%
CC1(C)CC(=O)c2cnc(NC(=O)Cc3ccc(Cl)cc3)nc2C1	nt	nt	nt	5%	-1.2%
CC(C)(C)Cc1nnc(NS(=O)(=O)Cc2ccccc2)s1	nt	nt	nt	4%[11.4 µM]	1.8%
Cc1ccnc(NC(=O)c2cc(S(=O)(=O)N3CCCCC3)ccc2Cl)c1	i	4e-08	i	-16%	-0.2%
